Assay outcomes as filed in PubChem.
Bead autofluor = compound fluorescence in toxin protease inhibitor counterscreen | compound autofluorescence counterscreen, microsphere flow cytometry; active compounds read high | fluorescence intensity (no concentration beside the values) | actives 3.1% (n = 360,000);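 active = at least 3 SD above the mean of all compounds, about 16000 in these data; inconclusive = too few beads counted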;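 note: 100 nL of 1 mM stock went into each well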
BJeLR viability = MLPCN primary cell-based screen for lethality selective to Ras in HRASV12 cells. BJeLR (HRASV12) viability, CellTiter-Glo ATP luminescence, 48 h; reference of the scale not given here. inhibition, % (test concentration not listed). actives 0.17% (n = 300,000);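 active = replicate mean above 50%; inconclusive = above 50% but judged a plate artefact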;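 note: 50 nL library stock added to about 25 µL; numbers are from one replicate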
ugtP null kill = growth inhibition of ugtP-null S. aureus, primary screen, RN4220 ugtP deletion, OD600. growth inhibition, % (no concentration beside the values). 16 h; some inactives read as strong as hits. actives 0.54% (n = 330,000). AID 1259309, 2017;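 active = z-score under -3 and OD600 up to 0.15 on both plates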;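 note: plate controls were untreated wells for no effect and antibiotic for full effect; wells of about 80 µL received 100 nL stock; the first replicate is given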
Mtb hypoxia inh = PubChem AID 1159583; M. tuberculosis hypoxia-regulated fluorescent reporter, fluorescence; fluorescence inhibition, % (test concentration not listed); actives 0.1% (n = 300,000);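 active = 35 to 45% if threefold the growth effect, above 45% if 1.5-fold the growth effect; inactive = the rest, general growth blockers included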;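 note: wells of about 50 µL received 100 nL stock; 0% = vehicle wells and 100% = reference inhibitor wells; whole bacteria with a GFP reporter of the hypoxia response; strong numbers were not always called active; many hits fall short of the cut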
Sa RN4220 lethal = growth inhibition of S. aureus RN4220, primary screen, OD600; actives 0.33% (n = 330,000); inhibition, % (test concentration not listed); 16 h;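 active = z-score of -3 or lower and OD600 up to 0.18 on both plates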;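 note: plate controls were untreated cells for no effect and reference antibiotic for full effect; stock transfer was 100 nL into about 80 µL; one replicate is shown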
PrP UTR inh = inhibition of PrP 5' UTR reporter expression; cell-based PrP 5' UTR mRNA reporter, plate reader; inhibition, % (no concentration beside the values); actives 0.35% (n = 340,000); AID 488862, 2010;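 active = every replicate at 50% or more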;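 note: 0 = median of the neutral control wells; tested in H4 reporter cells; numbers are from one replicate; inactives centre near -14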
Mtb hypoxia inh growth = recorded beside Mtb hypoxia inh, whose call it bears; growth inhibition, %; measured here: M. tuberculosis growth (absorbance);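 0% = vehicle and 100% = reference antibiotic; read after six days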
Starred values were filed as active, the others as inactive; u = inconclusive; x = no result given; & = joins results of further samples. Hits appear at their usual frequency (roughly 4% active in at least one column).

SMILES | Bead autofluor | BJeLR viability | ugtP null kill | Mtb hypoxia inh | Mtb hypoxia inh growth | Sa RN4220 lethal | PrP UTR inh
Cc1[nH][nH]c(=O)c1C(c1c(C)[nH][nH]c1=O)c1cn(Cc2ccc(F)cc2)c2ccccc12 | 7314 | x | 36 | 7 | 3 | 31 | -31
O=C(O)/C(=C\c1ccc2ccccc2c1)c1cccc2ccccc12 | 4656 | 0 | -26 | 4 | 5 | 14 | 4
Cc1ccccc1NC(=O)c1sc2nc3c(c(-c4ccco4)c2c1N)CCCC3 | 9689 | -3 | -16 | 3 | 10 | 9.8 | 1
COc1ccc(NC(=O)Cn2nnc(-c3ccccc3NS(=O)(=O)c3ccc(OC)cc3)n2)cc1 | 11274 | 43 | -3 | 6 | 0 | -4.8 | -24
COc1ccc(N(CC(=O)Nc2ccc(C)cc2C)S(=O)(=O)c2ccccc2[N+](=O)[O-])c(OC)c1 | 3096 | -4 | 13 | 2 | 5 | 6.2 | -11
O=C(COc1ccc(C=NNC(=O)c2cc3ccccc3o2)cc1Cl)Nc1ccccc1 | x | x | 2 | 9 | 4 | 10 | x
Fc1cc2nc(-c3ccncc3)[nH]c2cc1F | 3307 | -1 | 13 | 4 | -4 | 18 | -28
CC(=O)Nc1ccc(/C(C)=N/NC(=O)c2ccc(F)cc2)cc1 | 2530 | 1 | x | x | x | x | -13
Cc1ccc(NC(=O)c2cc(C(=O)Nc3ccc(C)cc3)n(C)n2)cc1 | 5898 | 0 | -1 | 0 | 1 | 0.7 | 8
O=C(Nc1cccc(Cl)c1)Nc1nnc(-c2ccncc2)s1 | 2529 | 7 | 8 | 24 | 16 | 11 | -9
Cc1ccc(S(=O)(=O)NCC(=O)OCc2csc(CC(=O)Nc3ccccc3C)n2)cc1C | 4291 | x | -4 | 1 | 14 | 1.3 | -5
CCOc1ccc(-n2c(N)c(C(=O)NCc3cccnc3)sc2=S)cc1 | 3072 | -12 | -3 | x | x | -0.8 | -15
N/C(Cc1ccc([N+](=O)[O-])cc1)=N\OC(=O)C(c1ccccc1)c1ccccc1 | 10727 | -6 | x | x | x | x | -23
CC1(C)CCC(C)(C)NC(=S)N1 | 4043&2361 | -16 | 2 | -15 | -9 | 6.4 | -26
Cc1cc(=O)n2c(-c3ccccc3C)n[nH]c2n1 | 2777 | 2 | -9 | 12 | 5 | -17 | -11
Cc1cccc(C)c1NC(=O)c1cc(S(=O)(=O)N2CCc3ccccc32)cn1C | 6186 | 1 | 5 | 1 | -1 | 5.1 | -28
COc1ccc(C(=O)Nc2cccc(OC)c2)cc1 | 7464 | x | 5 | 5 | 2 | 2.9 | -43
CCn1c(O)c(/C(C)=N/N2CCCCC2c2cccnc2)c(=O)[nH]c1=S (configuration not stated) | 2558 | 2 | -1 | 4 | 3 | 2.1 | -14
CN(C)C=Nc1ncc(C(=O)c2ccccc2)s1 | x | x | 1 | 13 | 5 | 2.6 | x
NC(=O)CCS(=O)(=O)c1ccc(Cl)cc1 | 3764 | 21 | -1 | 6 | -2 | 2.4 | -11
CC(C)(C)NC(=O)CSc1nnc(-c2c[nH]c3ccccc23)o1 | 4169 | 2 | -5 | 20 | 8 | 6.7 | -26
CC1=NN(C(N)=S)C(=O)C1N=Nc1ccc(Cl)cc1Cl (configuration not stated) | x | 7 | -3 | 9 | 9 | -0.1 | -58
Nc1nc(N)nc(-c2cc(F)ccc2O)n1 | 2742 | x | -8 | 12 | 0 | 2.8 | 24
Cc1ccc(NC(=O)COc2ncnc3c(Cl)cc(Cl)cc23)cc1[N+](=O)[O-] | 2449 | -10 | x | x | x | x | -16
CC1=C/C(=N\NC(=S)Nc2cccnc2)CC(C)(C)C1 | 4817 | 14 | x | x | x | x | -17
O=C(CN1CCCC1)NN=C(c1ccccc1)c1ccccc1 | 3464 | 10 | 14 | 6 | 14 | 2.7 | -32
Cc1cccc(C)c1NC1=NCCCCC1 | 4376 | 12 | 0 | 7 | 20 | 4.5 | 18
CSCC(=O)N1CCCC(N2CCN(c3ccc(F)cc3)CC2)C1 (configuration not stated) | 2724 | -3 | 1 | 1 | -6 | 0.0 | -9
Cn1c(CSCc2ccc(F)cc2)nnc1SCC(=O)Nc1nccs1 | 4439 | 6 | 2 | -8 | 3 | 2.0 | 4
CCCC(=NNC(=O)c1ccco1)c1ccc(Cl)s1 | x | x | -4 | x | x | 6.1 | x
Cc1ccc(S(=O)(=O)N2CC(=NO)C2)cc1 | 15658 | 0 | -1 | 5 | 10 | 0.0 | -11
O=C1/C(=C/c2ccco2)SC(=S)N1c1cccnc1 | 4581 | 0 | 9 | 21 | 14 | 11 | -19
CNC(=O)c1cc2ccc(OC)cc2oc1=O | 4349 | 4 | 1 | x | x | 2.4 | -6
COc1ccc(-c2nnc(N)s2)cc1OC | 2980 | x | 4 | 25 | 7 | 3.0 | -13
Cc1csc2nc(CNC(=O)C3CC=CCC3C(=O)O)cn12 (configuration not stated) | 6091 | -2 | 5 | 2 | 3 | -5.0 | -6
C/C(=N/NC(=O)c1ccc(C)s1)c1cccc(NC(=O)COc2ccc(Cl)cc2C)c1 | 3605 | 10 | x | x | x | x | -23
CCOC(=O)c1ccc(NC(=O)Cn2cnc(S(=O)(=O)N3CCCC3)c2)cc1 | 6074 | 3 | 1 | 4 | 0 | -0.4 | -19
O=C1COc2ccc(C(=O)COC(=O)CNC(=O)c3ccco3)cc2N1 | 1871 | -1 | 1 | -10 | 2 | -0.4 | 8
O=c1nc2ccccc2c2n1CC(CN1CCN(c3ccccc3F)CC1)N2 (configuration not stated) | 2594 | 4 | 3 | x | x | 5.1 | -64
COc1ccc(S(=O)(=O)N2CCC(n3cnc4ccccc43)CC2)cc1 | 5708 | -16 | -5 | 1 | -2 | 0.4 | 2

In a second layout: results already given.
compound	Bead autofluor	BJeLR viability	ugtP null kill	Mtb hypoxia inh	Mtb hypoxia inh growth	Sa RN4220 lethal	PrP UTR inh
CC1=C/C(=N\NC(=S)Nc2cccnc2)CC(C)(C)C1	4817	14	x	x	x	x	-17
O=C(CN1CCCC1)NN=C(c1ccccc1)c1ccccc1	3464	10	14	6	14	2.7	-32
Cc1cccc(C)c1NC1=NCCCCC1	4376	12	0	7	20	4.5	18
CSCC(=O)N1CCCC(N2CCN(c3ccc(F)cc3)CC2)C1 (configuration not stated)	2724	-3	1	1	-6	0.0	-9
Cn1c(CSCc2ccc(F)cc2)nnc1SCC(=O)Nc1nccs1	4439	6	2	-8	3	2.0	4
CCCC(=NNC(=O)c1ccco1)c1ccc(Cl)s1	x	x	-4	x	x	6.1	x
Cc1ccc(S(=O)(=O)N2CC(=NO)C2)cc1	15658	0	-1	5	10	0.0	-11
O=C1/C(=C/c2ccco2)SC(=S)N1c1cccnc1	4581	0	9	21	14	11	-19
CNC(=O)c1cc2ccc(OC)cc2oc1=O	4349	4	1	x	x	2.4	-6
COc1ccc(-c2nnc(N)s2)cc1OC	2980	x	4	25	7	3.0	-13
Cc1csc2nc(CNC(=O)C3CC=CCC3C(=O)O)cn12 (configuration not stated)	6091	-2	5	2	3	-5.0	-6
C/C(=N/NC(=O)c1ccc(C)s1)c1cccc(NC(=O)COc2ccc(Cl)cc2C)c1	3605	10	x	x	x	x	-23
CCOC(=O)c1ccc(NC(=O)Cn2cnc(S(=O)(=O)N3CCCC3)c2)cc1	6074	3	1	4	0	-0.4	-19

Back to the main list, starting two compounds before the break.
SMILES | Bead autofluor | BJeLR viability | ugtP null kill | Mtb hypoxia inh | Mtb hypoxia inh growth | Sa RN4220 lethal | PrP UTR inh
O=c1nc2ccccc2c2n1CC(CN1CCN(c3ccccc3F)CC1)N2 (configuration not stated) | 2594 | 4 | 3 | x | x | 5.1 | -64
COc1ccc(S(=O)(=O)N2CCC(n3cnc4ccccc43)CC2)cc1 | 5708 | -16 | -5 | 1 | -2 | 0.4 | 2
O=C(O)c1ccc(/C=C2\SC(=Nc3ccccc3)N(c3ccccc3)C2=O)cc1 | 2209 | -5 | x | x | x | x | -27
CCN(C(=O)c1ccc(C(C)(C)C)cc1)c1nnc(Cn2nnc3ccccc32)s1 | 3968 | 18 | -7 | x | x | -10 | -22
CCCCn1nc(C(=O)NC(CCSC)c2nc3ccccc3[nH]2)c2ccccc2c1=O (configuration not stated) | x | x | 24 | -3 | 12 | 8.5 | x
COc1ccccc1NS(=O)(=O)c1ccc(O)c(C(=O)OCC(=O)c2ccc(Cl)cc2Cl)c1 | 4512 | 7 | -3 | 4 | 9 | 7.4 | -22
Cn1nc(C(=O)Nc2nc(-c3ccc(F)cc3)cs2)ccc1=O | 3845 | 10 | -1 | 0 | 0 | 7.7 | -20
C/C(=N\Nc1ccccn1)c1ccc2c(c1)OCO2 | 5732 | 1 | x | x | x | x | -68
CC1CCCN(CC(=O)Nc2cc(Cl)ccc2Oc2ccccc2)C1 (configuration not stated) | 3933 | -5 | 34 | 6 | -9 | 2.5 | -28
COc1cccc(NC(=O)Nc2nnc(Cc3ccc(F)cc3)s2)c1 | 2918 | -1 | 2 | 6 | -3 | 4.9 | -10
COC(=O)/C=c1\sc2ncnn2c1=O | 3280 | -1 | x | x | x | x | -43
O=C(CS(=O)(=O)c1ccccc1)N1CCCCC1 | u | -2 | 2 | 3 | 1 | -1.1 | 6
C[C@@H]1ON(C2CCCCC2)[C@H]2c3nc4ccccc4n3C[C@@H]12 | 3762 | -3 | x | x | x | x | -14
Cc1ccc(C(=O)C(C)Oc2cccc(NC(=O)c3ccco3)c2)cc1 (configuration not stated) | 2671 | -13 | -1 | x | x | 3.8 | -30
CCC1(CC)Cc2ccccc2-c2nc(CN(C)C)[nH]c(=O)c21 | 3055 | 8 | 18 | -1 | -2 | 3.4 | x
CN1C(=O)C(C2(C#N)CCCCC2)C(=O)N(C)C1=O | 9839 | 7 | 0 | 5 | 5 | 0.1 | -15
C=CCN(C(=O)CNC(=O)c1cccs1)C(C(=O)NC(C)(C)C)c1ccccc1 (configuration not stated) | 2472 | 2 | 2 | 0 | -19 | 2.0 | -4
O=C1CCC(C(=O)N2CCCCCC2)CN1CCc1ccc(Cl)cc1 (configuration not stated) | 5016 | 12 | 11 | 5 | 8 | 0.9 | 3
CC1CCC(NS(=O)(=O)c2cccc3nsnc23)CC1 (configuration not stated) | 5431 | 5 | -4 | 19 | 3 | 6.2 | -4
c1cc(CNCCCN2CCOCC2)ccn1 | 8404 | -7 | 3 | 2 | 2 | -0.6 | 1
O=C(NCC1CCCO1)c1ccc(Cl)c(S(=O)(=O)Nc2ccccc2)c1 (configuration not stated) | u | 7 | -5 | 2 | -2 | -3.2 | -1
COc1ccc(C(CC(=O)Nc2ccc(Cl)cc2F)NC(=O)C(F)(F)F)cc1 (configuration not stated) | 9900 | -6 | -7 | 2 | 9 | -1.5 | -10
O=S1(=O)CCN(C(CCO)c2cccc(C(F)(F)F)c2)CC1 (configuration not stated) | 4172 | 9 | 16 | 10 | 3 | 5.5 | -22
